High-throughput results: PubChem BioAssay, several laboratories
RanGTP-Imp inh: disruptors of Ran-importin-beta complex formation – biochemical, FRET, CFP-Ran, YFP-importin-beta, homogeneous, primary screen. inhibition, % (test concentration not listed). 300,000 compounds, 1.1% hits. cell-free CFP-Ran/YFP-importin-beta FRET ratio;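 active = most replicates above 15%; inconclusive = exactly half above 15%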;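 note: 0% = DMSO wells and 100% = Ran loaded with GDP instead of GTP; wells of about 40 µL received 100 nL stock; the first replicate is given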
AF4-AF9 inh: inhibitors of human MLL-AF4/AF9 interaction; AlphaScreen, biotin-AF4 peptide binding to FLAG-AF9; 350,000 compounds, 0.47% hits; inhibition, % at 10 µM; P42568; AID 651704;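 active = every replicate reaching a set inhibition limit, whatever the replicate mean, cut at about 25% in these data; inconclusive = mean inhibition reaches that limit but some replicates miss it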;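 note: 0% = plate neutral control median and 100% = total signal loss; the record names both 10 and 1 µM as test concentration; the first replicate is given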
Vif A3G: inhibitors of Vif binding to APOBEC3G peptide, primary screen, biochemical, TR-FRET, GST-Vif 1-94, biotin-A3G peptide, dose response retest (AID 1117319). TR-FRET GST-Vif / biotin-A3G peptide binding; higher % means a stronger effect; test concentration not given here; strong numbers were not always called active. 260,000 compounds, 0.57% hits. inhibition, %; hits with a dose series show IC50 in µM;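 active = above the screen mean plus three standard deviations and confirmed in dose response; inconclusive = results disagree or hit not tested in dose response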;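 note: Vif residues 1-94 fused to GST binding biotinylated APOBEC3G peptide 110-148; 0% = full assay without inhibitor and 100% = GST in place of GST-Vif; retest series ran down from 100 µM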
E coli growth: blocks Escherichia coli growth | OD600, 23 h; hits give low values | OD600 absorbance (concentration not given with the values) | 330,000 compounds, 0.21% hits;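 active = OD600 absorbance below the run mean of sample wells minus 3.6 SD, in any replicate, cut at about 0.56 in these data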;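 note: stock transfer was 300 nL into about 60 µL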
HNF4A DNA FP: change in binding of human HNF4 alpha to DNA; HNF4a-FITC DNA binding, fluorescence polarization, 1 h; AID 1224865; activity change, % at 10 µM; 360,000 compounds, 0.3% hits; P41235; in the data active = activity change above about 30%, passing the limit was not always enough;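 note: controls were the assay level and a saturating level of protein; the project sought stronger binding though the title names inhibitors; some compounds called inactive have numbers as strong as hits; positive values seem to mean higher polarization but the record does not say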
Target sequence (P41235 whole entry, looked up): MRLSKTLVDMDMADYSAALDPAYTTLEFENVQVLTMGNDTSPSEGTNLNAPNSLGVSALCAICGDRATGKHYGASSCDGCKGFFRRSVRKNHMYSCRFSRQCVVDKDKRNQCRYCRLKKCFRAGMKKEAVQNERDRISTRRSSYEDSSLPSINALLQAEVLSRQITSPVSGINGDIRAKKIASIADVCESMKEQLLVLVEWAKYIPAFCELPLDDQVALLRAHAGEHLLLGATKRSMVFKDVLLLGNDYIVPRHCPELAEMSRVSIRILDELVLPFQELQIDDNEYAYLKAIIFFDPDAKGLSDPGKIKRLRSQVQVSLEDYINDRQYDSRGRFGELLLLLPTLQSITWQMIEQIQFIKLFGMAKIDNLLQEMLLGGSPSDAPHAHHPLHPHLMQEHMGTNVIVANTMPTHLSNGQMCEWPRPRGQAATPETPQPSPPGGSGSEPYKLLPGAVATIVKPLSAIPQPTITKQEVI
UCH37 inh: blocks the human deubiquitinase UCH37 | purified proteasome/UCH37, Ub-AMC cleavage fluorescence | Q9Y5K5 | inhibition, % (concentration not given with the values) | 330,000 compounds, 0.33% hits;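 active = mean of two replicates above 20%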;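 note: 0% = compound-free wells with enzyme and 100% = wells lacking proteasome; stock transfer was 100 nL into about 20 µL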
Target sequence (Q9Y5K5 whole entry, looked up): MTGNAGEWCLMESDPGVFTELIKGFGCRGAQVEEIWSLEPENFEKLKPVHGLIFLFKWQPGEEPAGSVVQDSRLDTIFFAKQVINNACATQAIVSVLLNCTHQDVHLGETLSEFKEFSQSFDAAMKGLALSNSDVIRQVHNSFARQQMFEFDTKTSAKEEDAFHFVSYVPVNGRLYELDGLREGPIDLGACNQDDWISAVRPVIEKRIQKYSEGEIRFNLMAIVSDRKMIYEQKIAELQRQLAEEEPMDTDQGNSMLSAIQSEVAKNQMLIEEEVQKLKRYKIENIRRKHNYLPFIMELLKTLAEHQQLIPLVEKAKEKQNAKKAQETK
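assay system = human UCH37 enzyme supplied as purified proteasome complex | amount = proteasome at 0.15 nM in the dispensed enzyme solution | schedule = 30 min compound-proteasome preincubation then 25 min substrate reaction, room temperature | measured by = fluorescence, ex 355 nm, em 460 nm | benchmarks = no-proteasome wells (full inhibition) and compound-free wells (no inhibition)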
FGF22 binding: shifts melting point of recombinant human FGF22; recombinant FGF22 thermal shift, SYPRO orange fluorescence; percent of sucrose octasulfate shift, DMSO zero; Q9HCT0; calls only at 9.99 µM; 340,000 compounds, 1.5% hits; AID 651658;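 active = melting point raised past a set limit in the mean and every replicate; inconclusive = no clear call; three in four hits are not shown here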
Target sequence (Q9HCT0 whole entry, looked up): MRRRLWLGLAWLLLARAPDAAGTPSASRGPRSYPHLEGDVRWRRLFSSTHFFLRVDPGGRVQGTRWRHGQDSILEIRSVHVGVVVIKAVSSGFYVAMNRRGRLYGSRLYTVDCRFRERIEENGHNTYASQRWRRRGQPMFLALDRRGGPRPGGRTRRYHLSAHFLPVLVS
* = called active by the depositor; i = inactive; ? = inconclusive; . = not tested or not shown; & = joins results of further samples. An excerpt; rates above refer to the full screens.

SMILES | RanGTP-Imp inh | AF4-AF9 inh | Vif A3G | E coli growth | HNF4A DNA FP | UCH37 inh | FGF22 binding
CC(C)(C)OC(=O)C[C@H]1C/C=C\C[C@@H](CC(=O)N(CCO)Cc2ccccc2)C(=O)NCCOC1=O | . | 2.0 | . | . | -0.2 | -1.8 | i
NC(c1csc(Nc2ccc(C(=O)NCCO)cc2)n1)C1CCCCC1 (stereo not given) | . | 3.2 | . | . | 3.0 | . | i
CCOC(=O)Nc1ccc2c(c1)Sc1ccccc1N2C(=O)CCN1CCOCC1 | 0.0 | . | 5% | 0.75 | -0.3 | -1.3 | .
CC(C)(O)c1ccccc1CC[C@@H](SCC1(CC(=O)O)CC1)c1cccc(/C=C/c2ccc3ccc(Cl)cc3n2)c1 | -1.9 | . | . | . | -2.1 | -25 | .
Cc1cc(SCC(=O)c2cc(C)n(C)c2C)nc2ccccc12 | ? | -0.4 | 2% | 0.68 | -6.0 | 4.5 | i
CCNCCNC(=O)c1c(O)c2c([nH]c1=O)CCCC2 | -1.0 | 0.7 | -1% | 0.68 | 1.2 | -1.0 | i
CCC1(CC)C(=O)C(C)(C)C(=O)OC1c1cccs1 (stereo not given) | 3.9 | . | -3% | 0.74 | 2.4 | 3.3 | .
Cn1cnnc1SCC(=O)Nc1ccc(Cl)c(S(=O)(=O)N2CCOCC2)c1 | 3.5 | -1.8 | . | 0.65 | -0.5 | 1.5 | i
Cc1cccc(NC(=O)NC(C)CCc2ccccc2)c1 (stereo not given) | ? | -1.9 | ? | 0.69 | -2.2 | 1.1 | i
O=C(COc1ccccc1Br)Nc1ccc(S(=O)(=O)N2CCCC2)cc1 | . | -3.9 | 7% | 0.68 | 1.5 | 2.8 | i
Cc1ccc(S(=O)(=O)CCC(=O)OCc2nnc(-c3ccc([N+](=O)[O-])cc3)o2)cc1 | . | 0.0 | 3% | 0.67 | 2.1 | 3.6 | i
Cc1ccc(S(=O)(=O)N(Cc2cc3cc4c(cc3[nH]c2=O)OCCO4)CC2CCCO2)cc1 (stereo not given) | 1.4 | . | 7%&-137% | 0.71 | -1.6 | -33 | .
Cc1nn(CC(=O)NCc2ccc(OC(C)C)cc2)c(=O)c2cc(-c3ccccc3)nn12 | 3.2 | . | . | 0.69 | 1.2 | 2.3 | .
CCCCOc1ccc(C(=O)NCC(=O)NC2CCC(C)CC2)cc1 (stereo not given) | -1.3 | -16 | 4% | 0.74 | 2.7 | 0.8 | i
O=C(NNC(=O)c1cccs1)c1ccc(Cl)c([N+](=O)[O-])c1 | -0.4 | -1.7 | . | 0.7 | 4.8 | 21* | i
CCn1c(SCC(=O)Nc2nccs2)nnc1-c1cccnc1 | -1.0 | -1.1 | . | 0.74 | 3.8 | 1.1 | i
Nc1ccc2oc(-c3cccc4ccccc34)nc2c1 | ? | . | -1% | 0.63 | 4.5 | -5.1 | .
O=C(NCCCN1CCOCC1)C1Nc2ccc(OC(F)(F)F)cc2C2C=CCC12 (stereo not given) | 1.2 | . | . | 0.69 | 2.0 | -0.8 | .
CCOC(=O)c1c(C)n(C)c2ccc(OCC(O)CN3C(=O)c4ccccc4S3(=O)=O)cc12 (stereo not given) | 2.3 | . | -1%&-6% | 0.68 | 2.8 | 3.6 | .
Cc1ccc(OCCCCNC2CCCC(C)C2C)c(C)c1 (stereo not given) | -8.6 | 10 | . | 0.64 | -4.1 | 2.3 | i
Cc1cc([N+](=O)[O-])ccc1NC(=O)CCC(=O)N1CCCC1 | 4.0 | 1.3 | . | 0.72 | -2.5 | 4.5 | i
CCN(CC(=O)Nc1c(F)cccc1F)C(=O)c1ccc(=O)n(C)n1 | . | 1.1 | 4% | 0.69 | -0.1 | 0.6 | i
Cc1ccc(NC(=O)COc2nsnc2N2CCOCC2)cc1Cl | 0.2 | 1.0 | . | 0.69 | 0.5 | 2.9 | i
CC1(C(=O)NCc2ccccc2Br)CCN1C(=O)CCc1ccc(Cl)cc1Cl (stereo not given) | . | -1.7 | . | . | -3.0 | . | i
CCOC(=O)C1=C(C)NC(SCC(=O)Nc2cc(C)on2)=C(C#N)C1c1cccs1 (stereo not given) | -0.2 | . | 28% | 0.66 | -2.1 | -1.5 | .
CC(C)(C)c1ccc(/C=C2\SC(=O)N(CCNC(=O)c3cccc(S(=O)(=O)N4CCOCC4)c3)C2=O)cc1 | -1.1 | . | 22% | 0.73 | 0.8 | 8.9 | .
O=C(NC1CCSc2ccccc21)c1c(F)cccc1Cl (stereo not given) | 4.7 | -1.4 | 7% | 0.74 | 1.6 | 2.8 | i
COC(=O)c1c(C)[nH]c(O)c1C=Nc1ccc(C(C)C)cc1 | -5.7 | . | 14% | . | 2.9 | . | .
Cn1cnc2c1c(=O)n(Cc1cccc(Br)c1)c(=O)n2C | -1.8 | . | 9% | 0.68 | 2.9 | 3.2 | .
CCOC(=O)c1cccc(NC(=O)CCn2nnc3ccccc32)c1 | ? | . | -1% | 0.66 | -1.2 | 0.7 | .
Cc1ccc(CNC(=O)C2CCC(CNc3nc(=S)[nH]c4ccccc34)CC2)cc1 (stereo not given) | 27* | -9.1 | 6% | 0.71 | 1.3 | 2.8 | i
Cc1ccccc1NC(=S)NNC(=O)c1ccoc1C | -3.2 | -100 | 0% | 0.72 | -0.6 | 1.5 | i
CC(C)Cc1nc2sc3c(=O)[nH]cnc3c2c2c1CCCC2 | -2.9 | 1.4 | -31% | 0.64 | -0.3 | -19 | i
CCSc1nc(O)cc(=O)[nH]1 | 1.8 | -3.1 | 0% | . | 1.2 | . | i
CCOc1ccc(CCNC(=O)C2CCN(c3nnc(-n4cccc4)s3)CC2)cc1OCC | 0.8 | . | 4% | 0.76 | -1.2 | -0.8 | .
C[C@H]1CN=C(N(C)C)N1CCC1CCCC1 | . | . | . | . | -1.7 | 1.1 | i
Cn1c(-c2cccc(F)c2)nc2c1c(=O)[nH]c(=O)n2Cc1ccccc1 | 1.7 | -1.3 | . | 0.68 | -0.3 | -187 | i
CC(C)Cc1cc(C(=O)N2CCC(N3CCC(C(=O)N4CCOCC4)CC3)CC2)n[nH]1 | -1.4 | -3.3 | 12% | 0.74 | -0.2 | 0.7 | i
Cc1ccc(C(c2c(C)nn(-c3ccccc3)c2N)c2c(C)nn(-c3ccccc3)c2N)cc1 | 4.4 | 10 | -3% | . | -2.5 | . | i
CCCCN(CC)CCNc1c(N2CCN(C(=O)OCC)CC2)c(=O)c1=O | -3.0 | . | -5%&-5% | 0.67 | 4.6 | 4.5 | .
CC(Sc1nnc(Cc2cccs2)n1C1CCCCC1)C(=O)NCc1ccco1 (stereo not given) | -6.1 | . | 6% | 0.69 | -0.2 | 3.3 | .
Cc1ccc(S(=O)(=O)N(C)Cc2ccccc2)cc1C(=O)N1CCCCC1 | 3.1 | -0.4 | 2% | 0.67 | 3.9 | 3.5 | i
CCn1nnc(NC(=O)Cc2ccc(Cl)cc2)n1 | 3.2 | -2.9 | . | 0.71 | 2.1 | 4.4 | i
COc1ccc(CC(=O)NCC2CCCN(Cc3ccc(OC)cc3F)C2)cc1 (stereo not given) | 0.6 | -12 | . | 0.7 | -0.1 | 1.2 | .
CCCn1c(C)cc(C)c(C#N)c1=O | 2.5 | . | 1% | 0.59 | 1.2 | -2.4 | .
Cc1ccccc1-c1ccc(=O)n(CC(=O)Nc2ccc(C(=O)N3CCCC3)cc2)n1 | 4.8 | . | -1% | 0.7 | 5.0 | 2.4 | .
COC(=O)CSc1nnc(NC(=O)/C=C\c2ccc3c(c2)OCO3)s1 | -0.6 | -3.9 | ? | 0.68 | 2.7 | -62 | i
Cn1c(SCC(=O)N2c3ccccc3Sc3ccccc32)nnc1-c1ccco1 | 0.5 | . | 1% | 0.73 | 0.4 | 5.4 | .
COc1ccccc1CNC(=O)C(=O)Nc1ccc(C(=O)N2CCC(C)CC2)cc1 | -2.6 | ? | . | 0.65 | -0.8 | 5.2 | i
COc1ccc(OC)c(CN2C(=O)c3ccccc3C2c2nnnn2C2CCCC2)c1 (stereo not given) | . | -3.0 | . | . | -1.2 | . | i

More records
SMILES | RanGTP-Imp inh | AF4-AF9 inh | Vif A3G | E coli growth | HNF4A DNA FP | UCH37 inh | FGF22 binding
CCOc1ncccc1C(=O)Nc1ccc(C)cn1 | 0.6 | 1.0 | . | 0.73 | -5.8 | 0.7 | i
NS(=O)(=O)c1ccc(NC(=O)CSc2ccc3ccccc3n2)cc1 | -1.1 | . | -3% | 0.71 | 0.6 | 2.3 | .
Cc1ccc(NC(=O)c2nn(C34CC5CC(CC(C5)C3)C4)cc2[N+](=O)[O-])cc1 | 2.4 | . | -1% | 0.73 | -0.9 | -0.1 | .
C#CCN(Cc1ccccc1)S(=O)(=O)C=C | . | -1.8 | . | . | . | 2.2 | i
Cc1ccc(C)c(NC(=O)C2CCCN2C(=O)NC2CCCCC2)c1 (stereo not given) | -5.5 | -0.8 | -6% | 0.64 | 1.4 | -1.1 | i
Cc1ccc(C(c2nnnn2CC2CCCO2)N2CCN(c3cccc(C)c3C)CC2)cc1 (stereo not given) | 2.4 | . | 1%&-1% | 0.74 | -2.2 | 1.8 | .
CCOc1ccc(NS(=O)(=O)c2ccc(C(=O)NCCN3CCOCC3)cc2)cc1 | 3.2 | 1.0 | 1% | 0.64 | 1.4 | 4.6 | i
Nc1ncnc2c1ncn2[C@@H]1O[C@H](CNCc2c(OCc3ccccc3F)ccc3ccccc23)[C@@H](O)[C@H]1O | . | 5.6 | -12% | 0.69 | 4.0 | 1.2 | i
CC(=O)N1N=C(c2cccc([N+](=O)[O-])c2)OC1c1ccc(Cl)cc1Cl (stereo not given) | -1.2 | . | -6% | 0.73 | -1.4 | 3.6 | .
CC(=O)C1=C(O)C(=O)N(C)C1c1ccccc1F (stereo not given) | 1.7 | . | -7% | 0.69 | 2.8 | 0.9 | .
CCOC(=O)N1CCN(c2c(NCc3ccccn3)c(=O)c2=O)CC1 | 3.3 | 1.8 | -3% | 0.73 | -0.1 | 1.2 | i
CC(OC(=O)CNC(=O)C12CC3CC(CC(C3)C1)C2)C(=O)Nc1ccc(S(N)(=O)=O)cc1 (stereo not given) | 3.8 | -0.7 | 3% | 0.68 | -2.4 | 2.9 | i
CCOc1ccc(Br)cc1C(=O)N/N=C/c1c[nH]c2ccccc12 | -4.1 | -2.1 | -3% | . | 1.4 | . | i
N#Cc1ccc(NC(=O)COC(=O)CNC(=O)C2CCCCC2)cc1 | 0.2 | . | 3% | 0.74 | -1.8 | 2.1 | .
COc1ccc(OC)c2c1sc(=NC(=O)C(C)(C)C)n2C | 3.8 | -1.3 | -2% | 0.75 | 1.1 | -1.6 | i
O=C1CSC2(C(=O)N3CCCc4cccc2c43)N1c1cccc(C(F)(F)F)c1 (stereo not given) | 0.5 | . | 0% | 0.74 | 2.0 | 4.0 | .
Cc1c(C(=O)NCc2cccc(C(F)(F)F)c2)sc(=O)n1Cc1ccc(F)cc1 | . | -5.8 | . | . | -3.7 | . | i
Cc1cc(C(O)c2ncc(-c3ccc(Oc4ccccc4)cc3)[nH]2)ccc1F (stereo not given) | . | 2.4 | . | . | 0.4 | . | i

Part of the list above, tab-delimited.
smiles	RanGTP-Imp inh	AF4-AF9 inh	Vif A3G	E coli growth	HNF4A DNA FP	UCH37 inh	FGF22 binding
Cc1c(C(=O)NCc2cccc(C(F)(F)F)c2)sc(=O)n1Cc1ccc(F)cc1	.	-5.8	.	.	-3.7	.	i
Cc1cc(C(O)c2ncc(-c3ccc(Oc4ccccc4)cc3)[nH]2)ccc1F (stereo not given)	.	2.4	.	.	0.4	.	i
